RGS16-Gao – modulators of RGS16 binding to Galphao, primary screen, biochemical, human proteins, multiplexed bead flow cytometry | bead-based flow cytometry RGS16-Galphao binding, fluorescence; actives lie on both sides | binding response (% of control), % at 10 µM | 220,000 tested, 0.38% active | AID 1441, 2008;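 active means below 25% or above 175%, edge rows of some plates excepted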;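 further: Galphao activated by GDP with aluminum fluoride before binding; 100% = wells without compound and 0% = beads without RGS; some results beyond the cut were filed as inactive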
PKD1 inh – inhibitors of human PKD1 kinase, biochemical, fluorescence polarization | Serine/threonine-protein kinase D1 (Homo sapiens), Q15139 | PKD1 kinase fluorescence polarization assay | inhibition, %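 (about 10 µM by stock and volumes)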 | 200,000 tested, 0.056% active;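 active means inhibition of 50% or more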;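 further: controls were vehicle for no effect and a reference inhibitor for full effect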
Target sequence (Q15139 whole entry, looked up): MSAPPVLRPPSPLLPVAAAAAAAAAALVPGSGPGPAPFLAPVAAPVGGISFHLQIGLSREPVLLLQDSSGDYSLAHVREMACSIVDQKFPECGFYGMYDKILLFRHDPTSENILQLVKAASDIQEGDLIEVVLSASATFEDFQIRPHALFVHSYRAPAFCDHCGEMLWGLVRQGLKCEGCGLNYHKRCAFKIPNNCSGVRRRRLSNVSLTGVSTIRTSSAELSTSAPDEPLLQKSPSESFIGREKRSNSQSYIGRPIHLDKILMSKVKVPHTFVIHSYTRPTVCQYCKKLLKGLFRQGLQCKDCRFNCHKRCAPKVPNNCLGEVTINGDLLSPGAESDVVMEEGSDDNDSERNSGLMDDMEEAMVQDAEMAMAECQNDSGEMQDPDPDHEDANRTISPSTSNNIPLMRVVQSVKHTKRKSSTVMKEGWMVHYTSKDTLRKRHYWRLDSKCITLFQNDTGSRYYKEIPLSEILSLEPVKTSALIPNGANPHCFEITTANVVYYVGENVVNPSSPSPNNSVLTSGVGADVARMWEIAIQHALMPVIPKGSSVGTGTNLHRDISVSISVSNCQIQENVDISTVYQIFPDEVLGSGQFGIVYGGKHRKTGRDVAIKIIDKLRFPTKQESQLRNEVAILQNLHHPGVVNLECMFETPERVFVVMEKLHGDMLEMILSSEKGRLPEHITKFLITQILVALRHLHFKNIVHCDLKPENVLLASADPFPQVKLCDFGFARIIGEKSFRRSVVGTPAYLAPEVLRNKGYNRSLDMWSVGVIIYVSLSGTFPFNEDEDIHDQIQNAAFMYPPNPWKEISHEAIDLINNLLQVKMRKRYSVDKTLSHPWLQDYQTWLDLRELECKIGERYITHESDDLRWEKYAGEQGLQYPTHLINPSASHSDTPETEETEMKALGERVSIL
INS promoter inh – inhibitors of insulin promoter-driven GFP, primary screen, imaging, TRM-6 cells (human fetal islet line), eGFP reporter, cell count; reporter expression induced with tamoxifen; inhibition, % at 2 µM; 130,000 tested, 0.9% active; AID 1273, 2008;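 active means inhibition above the mean plus 3 SD, with well images judged a real hit on visual review, cut at about 60% in these data, passing the limit was not always enough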
HSV augment – enhancers of HSV replication in host cells, fold increase, host cell viability. HSV replication augmentation in cells. maximum fold increase. 220,000 tested, 0.005% active. AID 1956, 2009;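 active means peak rise of 1.5-fold or more in the series; tested in PC3 cells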;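 further: first round at 10 µM; read as green reporter fluorescence; hits show the peak of a series up to 25 µM; 1 = signal of infected wells without compound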
GALR2 agonist – GALR2 receptor agonists, primary screen, cell-based; 140,000 tested, 0.48% active; AID 803, 2007; activation, %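 (tested at 5 µM)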; GALR2-expressing cells, agonist activation read-out; Galanin receptor type 2 (Homo sapiens), O43603;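 active means above mean plus 3 SD of all compounds, about 5% in these data, not always enough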;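 further: 0% = vehicle buffer wells and 100% = reference agonist at full effect; tested in CHO reporter cells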
INS promoter inh cell count – recorded beside INS promoter inh, whose call it bears; normalized cell count, %; measured here: cell count, toxicity; reference of the scale not given here;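 cells exposed to compound for 48 h; stained nuclei by imaging scaled within each plate; lower means fewer cells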
HSV augment primary fold – also measured in HSV augment; calls as there; fold increase; compound at 10 µM; measured here: primary screen fold increase 10 uM; tested in PC3 cells;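 GFP signal in the first replicate; 1 = infected wells without compound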
Starred values were filed as active, the others as inactive; i = inactive; / = not tested or not shown; [ ] = another dose, or the depositor's remark.

SMILES | RGS16-Gao | PKD1 inh | INS promoter inh | INS promoter inh cell count | HSV augment | HSV augment primary fold | GALR2 agonist
O=C(COc1ccccc1)Nc1ccc(OC(F)(F)C(F)F)c(NC(=O)COc2ccccc2)c1 | 93 | -4 | / | / | i | 0.96 | -0.9
COc1ccc(NS(=O)(=O)c2cc(NC(=O)CNC(=O)c3ccc(C)s3)ccc2Cl)cc1 | 30 | 6 | -9 | 68 | i | 0.89 | -1.2
Cc1ccc(S(=O)(=O)N/N=C/c2cccc(OC3CSC3)c2)cc1 | 79 | 3 | 7 | 98 | i | 0.75 | -0.5
CC(=O)Nc1ccc(S(=O)(=O)Nc2nc3c(s2)CCCC3)cc1 | 100 | -9 | -76 | 51 | i | 1 | -2.8
CC(=O)Nc1ccc(S(=O)(=O)N(Cc2ccco2)CC2CCCO2)cc1 (stereo unspecified) | 96 | 9 | -11 | 84 | / | / | -0.9
COc1cc(/C=N/NC(=O)Cc2csc(C)n2)ccc1OCC(C)C | 100 | 6 | / | / | i | 0.89 | /
CCOc1ccc(/C=N/NC(=O)CC(=O)Nc2ccc(Cl)c(Cl)c2)cc1 | 84 | -6 | / | / | i | 1.1 | -0.3
CCC1=C2CC[C@H]3C(=O)N(c4ccccc4)C(=O)[C@H]3[C@H]2[C@@]2(C)C(=NCC3CC3)OC(=O)N2C1=O | 103 | / | / | / | i | 0.86 | /
COC(=O)N/N=C/c1cccs1 | 100 | 3 | / | / | i | 1 | /
Cn1c(SCC(=O)N2CCCC2)nc2ccccc2c1=O | 72 | 3 | / | / | i | 0.98 | -1.0
Cc1ccc(Cn2ccc(NC(=O)c3cc(CC(C)C)on3)n2)cc1 | 106 | -1 | 50 | 112 | i | 1 | -2.7
Cc1nonc1C(=O)N/N=C/c1cccc(O)c1 | 109 | -11 | / | / | i | 1.1 | -2.0
O=C(Nc1cccc(S(=O)(=O)N2CCOCC2)c1)c1ccccn1 | 103 | / | / | / | i | 0.91 | /
COc1cc(/C=C/C2=NC(=O)C(C)(C)O2)ccc1O | 69 | -3 | 18 | 138 | i | 0.94 | -1.7
COc1ccc(C(=O)CSc2nc(-c3ccccn3)nc(C)c2Cl)cc1 | 97 | / | / | / | i | 0.81 | /
O=C(CS(=O)(=O)Cc1ccccc1)Nc1ccccn1 | 104 | -4 | -43 | 99 | i | 1 | -0.4
CCNc1nc(NC(C)C)nc(Oc2ccc(OCc3ccccc3)nn2)n1 | / | -8 | -469 | 42 | i | 0.9 | -1.0
CCN(CC(=O)NCc1ccc(F)cc1)C(=O)/C=C/c1ccco1 | 101 | -3 | -93 | 89 | i | 1.2 | /
CCc1cccc2c(C(=S)N3CCOCC3)c[nH]c12 | 105 | -7 | / | / | i | 0.84 | /
Cc1ccccc1N1C(=O)C(Oc2ccc(Cl)cc2)C1CNCC1CCCO1 (stereo unspecified) | 98 | -3 | / | / | i | 0.94 | /
Cc1ccc(NS(=O)(=O)c2ccc(NC(=O)CN(c3cc([N+](=O)[O-])ccc3C)S(C)(=O)=O)cc2)c(C)c1 | 116 | -3 | 44 | 103 | i | 0.61 | 0.3
c1ccc(CCNc2nc(-c3ccncc3)cs2)cc1 | 105 | 0 | 40 | 89 | i | 0.97 | /
COc1cc(C=O)ccc1OS(=O)(=O)c1ccccc1[N+](=O)[O-] | 51 | 5 | 0 | 78 | i | 1.1 | -1.1
CCN(CC)S(=O)(=O)c1cc(C(=O)NCCN2CCOCC2)ccc1Cl | 98 | 6 | / | / | i | 1.1 | /
CC(C)(C)c1ccc(C(=O)NNc2cc(N3CCCCC3)nc(N3CCCCC3)n2)cc1 | 560*[activator] | -27 | -14 | 206 | i | 0.8 | -0.1
CC(C)Sc1cc(N2CCCC2)nc(-c2ccccc2)n1 | 101 | -3 | -47 | 112 | i | 0.98 | 1.0
COc1ccc(C)cc1NC(=O)CCC(=O)Nc1nnc(C(F)(F)F)s1 | 98 | 15 | 36 | 105 | i | 1.1 | -4.0
CN(C)/C=C/C(=O)c1ccccc1OCc1cnc(Cl)s1 | 95 | 2 | / | / | i | 1.1 | /
CC(=O)c1cccc(CN2CCCC(C(=O)c3ccc4c(c3)OCO4)C2)c1 (stereo unspecified) | 102 | -6 | / | / | i | 0.99 | /
COC(=O)/C=C/C(=O)Nc1ccc(O)c(Cl)c1 | 108 | -3 | -38 | 129 | i | 0.87 | -0.5

Single records (already shown):
CCN(CC(=O)NCc1ccc(F)cc1)C(=O)/C=C/c1ccco1 across the screens: RGS16-Gao = 101; PKD1 inh = -3; INS promoter inh = -93; INS promoter inh cell count = 89; HSV augment = i; HSV augment primary fold = 1.2; GALR2 agonist = /
CCNc1nc(NC(C)C)nc(Oc2ccc(OCc3ccccc3)nn2)n1 across the screens: RGS16-Gao = /; PKD1 inh = -8; INS promoter inh = -469; INS promoter inh cell count = 42; HSV augment = i; HSV augment primary fold = 0.9; GALR2 agonist = -1.0

New compounds follow:
SMILES | RGS16-Gao | PKD1 inh | INS promoter inh | INS promoter inh cell count | HSV augment | HSV augment primary fold | GALR2 agonist
Cn1c(SC(C(=O)Nc2ccc(F)cc2)c2ccccc2)nc2ccccc21 (stereo unspecified) | 97 | 5 | / | / | i | 1.2 | -1.4
CCCC1C2C(=O)N(c3ccc(OC)cc3)C(=O)C2ON1c1ccccc1 (stereo unspecified) | 95 | 0 | -3 | 103 | i | 0.98 | -1.2
Cn1c(SCC(=O)N2CCCc3ccccc32)nc2cccnc21 | 108 | -7 | 32 | 175 | i | 0.99 | -1.9
Cc1ccc(NC(=O)Cn2c(=O)n(CCCC(=O)NCc3ccco3)c(=O)c3ccccc32)cc1 | 97 | -12 | / | / | i | 0.87 | -2.3
CCN1CCN(Cc2ccc(NC(=O)c3cc(NC(=O)c4cc(-c5ccc(OC)cc5)n[nH]4)cc(OC)c3)cc2C(F)(F)F)CC1 | 99 | / | / | / | i | 0.51 | /
CCCCNC(=O)c1ccc(Cn2c(=S)[nH]c3c([nH]c4ccc(OC)cc43)c2=O)cc1 | 97 | -7 | -70 | 104 | i | 0.74 | 10*
O=C(O)c1ccc(CNCc2ccc(Cl)cc2Cl)cc1 | 98 | -11 | 13 | 65 | i | 0.91 | -0.7
Cc1csc(NC(=O)CCc2nc3ccccc3s2)n1 | 108 | -2 | / | / | i | 1.1 | -1.1
COc1ccc2oc(=N)c(C(=O)Nc3ccccc3)cc2c1 | 103 | -8 | 39 | 88 | i | 1 | -1.3
COc1ccc(OC)c(N2C(=O)C(Cl)=C(N3CCCCC3)C2=O)c1 | 104 | -7 | 33 | 146 | i | 0.9 | -1.3
O=C(Cn1nnc2c(sc3nc4c(c(-c5ccccc5)c32)CCC4)c1=O)c1ccccc1 | 100 | -1 | -27 | 95 | i | 0.82 | -1.6
CC1Cc2ccccc2N1C(=O)CSc1nnnn1Cc1ccccc1 (stereo unspecified) | 100 | 10 | 19 | 109 | i | 0.73 | -0.8
O=C(O)/C=C/C(=O)Nc1ccc(OC(F)(F)F)cc1 | 104 | / | / | / | i | 1.1 | /
Oc1ccc(/C=N/Nc2nc(N3CCCCCC3)nc(N3CCCCCC3)n2)c(O)c1 | 105 | -5 | 35 | 73 | i | 0.73 | /
OC(COc1cccc2ccccc12)CN1CCN(c2cccc(Cl)c2)CC1 (stereo unspecified) | 96 | / | / | / | i | 0.88 | /
Cn1c(C(=O)N2CCCCCC2)cc2c(=O)n(C)c3ccccc3c21 | 103 | -2 | / | / | i | 1.2 | -2.1
Cc1ccc(S(=O)(=O)N2CCN(C3CC(=O)N(Cc4ccccc4)C3=O)CC2)cc1C (stereo unspecified) | 104 | -8 | -13 | 87 | i | 1.2 | -2.8
CC(NS(=O)(=O)c1ccc(Br)cc1)C(N)=O (stereo unspecified) | 101 | -3 | 48 | 104 | i | 1 | -0.6
COc1cccc2cc(-c3nnc(SCC(=O)Nc4cc(C(F)(F)F)ccc4Cl)n3N)oc12 | 100 | 1 | -28 | 118 | i | 0.81 | 0.6
CC(/C=C1\SC(=S)N(NS(=O)(=O)c2ccc(C)cc2)C1=O)=C\c1ccccc1 | 94 | / | / | / | i | 0.98 | /
CC(=O)c1cccc(NC(=O)NCc2cccnc2)c1 | / | -1 | 34 | 99 | i | 0.83 | -1.2
CC1CCN(C(=O)CN(c2ccccc2)S(=O)(=O)N(C)C)CC1 | 103 | 8 | -2 | 109 | i | 0.95 | /
CCCC(=O)NCCc1ccc(F)cc1 | 104 | -3 | 11 | 105 | i | 1.1 | -1.6
O=c1[nH]c(CSc2ncccn2)nc2c1cnn2-c1ccccc1 | 126 | -21 | -5 | 118 | i | 1.2 | 0.8
Cc1cc(C)nc(SCC(=O)Nc2nc(-c3ccccc3)c(-c3ccccc3)o2)n1 | 104 | -4 | / | / | i | 0.95 | -0.2
Cc1cc(/C=N/NC(=O)C(=O)NCc2ccccn2)c(C)n1-c1ccccc1 | 43 | 6 | 19 | 58 | i | 1.1 | -2.4
Cc1c(C(c2ccc(N(C)C)cc2)c2c(C)n(C)n(-c3ccccc3)c2=O)c(=O)n(-c2ccccc2)n1C | 99 | -5 | 44 | 110 | i | 0.9 | /
O=C(COC(=O)c1ccc([N+](=O)[O-])o1)Nc1nc2ccccc2s1 | 104 | / | / | / | i | 0.97 | /
S=c1[nH]nc(-c2ccccn2)n1/N=C/c1cccs1 | 96 | -1 | 7 | 90 | i | 0.95 | -1.2
CN1c2ccccc2C(=O)NC1c1ccc(Cl)cc1 (stereo unspecified) | 165 | -1 | / | / | i | 1 | /
COc1ccc(S(=O)(=O)N2CCCc3ccccc32)cc1OC | 97 | / | / | / | i | 0.94 | /
Cc1ccc2nc(SCC(=O)Nc3ccc4c(c3)OCCO4)[nH]c2c1 | 101 | -7 | 9 | 125 | i | 1.1 | -2.7
COc1ccccc1CCC(=O)Nc1nc2ccccc2[nH]1 | 86 | -5 | / | / | i | 0.9 | -1.4
CC(NC(=O)CSc1nc2ccccc2n1CCC#N)c1ccc(F)cc1 (stereo unspecified) | 101 | -6 | -26 | 53 | i | 1 | -0.8
Cc1ccc(NS(=O)(=O)c2ccc(/C=C/C(=O)O)cc2)cc1Cl | 101 | 2 | 33 | 111 | i | 1.1 | /
Cn1c(COc2ccccc2)nnc1SCCC(=O)Nc1ccccc1 | 99 | -7 | / | / | i | 0.84 | -2.2
CC1=C(C(=O)Nc2ccccc2)C(c2ccccc2[N+](=O)[O-])NC(=O)N1 (stereo unspecified) | 98 | -3 | 0 | 111 | i | 0.87 | /
O=C(Nc1ccccc1)C1CCCN1C(=O)Nc1ccccc1[N+](=O)[O-] (stereo unspecified) | 111 | -6 | / | / | i | 0.89 | /
O=C(O)c1cc(NC(=O)c2ccccc2[N+](=O)[O-])ccc1O | 106 | -1 | 29 | 105 | i | 0.97 | /
CC(=O)C1=C(C)NC(C)=C(C(C)=O)C1c1ccc(-c2ccccc2Cl)o1 | 103 | -8 | 30 | 114 | i | 0.9 | -0.6
O=C(O)CCC(=O)N(Cc1ccco1)C1CC(=O)N(c2ccccc2)C1=O (stereo unspecified) | 104 | / | / | / | i | 1 | /
CC1=NN2C(=N)/C(=C\c3cc(C)n(Cc4ccccc4)c3C)C(=O)N=C2S1 | 95 | / | / | / | i | 0.98 | /
CCCn1nnnc1NCc1ccccc1OCc1ccc(F)cc1 | 101 | -4 | 0 | 79 | i | 0.99 | 0.3
COc1cccc(C(=O)NCCC2=CCCCC2)c1OC | 101 | -14 | -21 | 120 | i | 0.85 | -1.8
CC(C)NS(=O)(=O)c1ccc(OCC(=O)Nc2ccc(F)cc2F)cc1 | 98 | 2 | 27 | 122 | i | 1 | -1.6
CCN(CC)C(=O)CC(c1cc(OC)c(OC)c(OC)c1)c1c(OC)cc(OC)c2ccc(=O)oc12 (stereo unspecified) | 104 | / | / | / | i | 0.94 | /
CN1CCCC(C#CC(O)(c2ccccc2)c2ccccc2)C1 (stereo unspecified) | 105 | 2 | -20 | 98 | i | 0.95 | /
Cc1cc(=O)[nH]c(SCC(=O)Nc2nc3ccccc3s2)n1 | 102 | -2 | / | / | i | 0.94 | /

5 entries from above, with two lines to a compound.
Fields: RGS16-Gao, PKD1 inh, INS promoter inh, INS promoter inh cell count, HSV augment, HSV augment primary fold, GALR2 agonist
- CC(NC(=O)CSc1nc2ccccc2n1CCC#N)c1ccc(F)cc1 (stereo unspecified)
→ 101, -6, -26, 53, i, 1, -0.8
- Cc1ccc(NS(=O)(=O)c2ccc(/C=C/C(=O)O)cc2)cc1Cl
→ 101, 2, 33, 111, i, 1.1, /
- Cn1c(COc2ccccc2)nnc1SCCC(=O)Nc1ccccc1
→ 99, -7, /, /, i, 0.84, -2.2
- CC1=C(C(=O)Nc2ccccc2)C(c2ccccc2[N+](=O)[O-])NC(=O)N1 (stereo unspecified)
→ 98, -3, 0, 111, i, 0.87, /
- O=C(Nc1ccccc1)C1CCCN1C(=O)Nc1ccccc1[N+](=O)[O-] (stereo unspecified)
→ 111, -6, /, /, i, 0.89, /
